VACV mCherry inh – qHTS for Stage-Specific Inhibitors of Vaccinia Orthopoxvirus: mCherry Reporter Primary qHTS; Vaccinia virus mCherry reporter infection, fluorescence; about a quarter of the inactives have no number; Potency, µM (titrated, usually from 36.5 µM), for inactives: at the top dose activity change, negative = inhibition, usual class: inhibitors; 0.63% of 310,000 active; AID 720579, 2013; active = well fitted inhibition curve with a large enough effect; inconclusive = small, poorly fitted or top-dose-only effect; inactive = no such curve, though single readings can be large or run the other way; tested in A549 cells; note: nearly all actives have a fitted effect of over 35% in size; inactives centre near -10
Vaccinia Venus – qHTS for Stage-Specific Inhibitors of Vaccinia Orthopoxvirus: Venus Reporter Primary qHTS | Vaccinia virus Venus reporter expression, fluorescence | Potency, µM (series often up to 36.5 µM), for inactives: at the top dose activity change, negative = inhibition, actives largely listed as inhibitors | 0.46% of 330,000 active; active means well fitted inhibition curve with a large enough effect; inconclusive means small, poorly fitted or top-dose-only effect; inactive means no such curve, though single readings can be large or run the other way; tested in A549 cells; note: nearly all actives have a fitted effect of over 30% in size; inactives centre near -10
* marks the source's active call; other numbers are inactive results; i = inactive; ? = inconclusive; / = not tested or not shown; & = joins results of further samples; [ ] = another dose, or the depositor's remark. % is set by controls: 0 for no effect and ±100 for the full control effect; potency is the fitted concentration of half-maximal effect.

SMILES | VACV mCherry inh | Vaccinia Venus
Cc1ccc(/C=N/NC(=O)Cc2ccc(Cl)cc2)s1 | -5% | -18%
Cn1c(N2CCN(c3ccccn3)CC2)nc2c1c(=O)n(Cc1ccccc1Cl)c(=O)n2C | i | -11%
CC(C)c1nn2c(=O)cc(COC(=O)C3CCCCC3)nc2s1 | 1% | 5%
Cc1ccc(CNC(=O)CSc2nnc3c(n2)[nH]c2ccccc23)cc1 | -10% | 10%
CCn1cc(C2=NC(CCSC)CO2)c2ccccc21 (stereo not drawn) | -2% | -2%
O=C(Nc1ccc(C(F)(F)F)cc1)c1ccccc1 | 9% | -16%
CCCCn1c(=O)c2oc3ccccc3c2n(Cc2cccc(C)c2)c1=O | -11% | -3%
CSc1nnc2c3ccccc3n(Cc3ccccc3)c2n1 | / | -5%
Cc1ccc(C)n1CCN1CCN(CC(=O)Nc2ccc(S(N)(=O)=O)cc2)CC1 | -18% | -4%
CCCC(=O)Nc1ccc(Cl)c(NC(=O)c2ccc([N+](=O)[O-])cc2Cl)c1 | ? | -23%
CCCC(=O)Nc1ccc(Cl)c(NC(=O)c2cccnc2)c1 | i | -11%
CCOC(=O)c1cnc(SCC(=O)OCC(=O)NC2CCS(=O)(=O)C2)nc1N (stereo not drawn) | -11% | -21%
O=C(CCN1C(=O)/C(=C\c2cccc(Br)c2)SC1=S)N1CCOCC1 | i | -7%
COc1ccc(C2=NS(=O)(=O)N(C)C(C(=O)NCc3ccc(F)cc3)=C2)cc1OC | -19% | ?
CCCCOC(=O)c1ccc(N/C(=N\S(=O)(=O)c2ccccc2)c2ccccc2)cc1 | -10% | -9%
COc1cc(C)ccc1OCCOCCOc1c(C)cc(C)cc1Br | / | -2%
CNC(=O)C[C@H]1C(=O)N(c2ccc(Br)cc2)C[C@@H]1CSC | -22% | 6%
O=C(N/N=C/c1ccccc1C(=O)O)c1cc(-c2ccc3c4c(cccc24)CC3)n[nH]1 | -25% | -2%
COc1cc(OC)cc(-c2nc(-c3ccccc3)no2)c1 | 14% | 15%
O=C1C=CC2=C3c4cc(O)c(O)cc4CC3(O)COC2=C1O (stereo not drawn) | 17%&4% | 31%&18%[activator]
COc1cc(/C=C/C(=O)N[C@@H](Cc2c[nH]c3ccccc23)C(=O)O)ccc1O | 6% | 2%
C[n+]1ccc(C(c2c[nH]c3ccccc23)c2cc[n+](C)c3ccccc23)c2ccccc21 | 231%[activator] | i
CC(=O)N[C@@H](Cc1c[nH]c2ccccc12)C(=O)OCC(=O)Nc1cc(C)on1 | i | 23%
Cn1c(=O)c2[nH]c(C3CC4CCC3C4)nc2n(C)c1=O (stereo not drawn) | -6% | -16%
Cc1ccc(-c2noc(CN(C)C(=O)c3ccc(Br)o3)n2)cc1 | -20% | -9%
Cc1cc(C)c(S(=O)(=O)NC2CC(C)(C)NC(C)(C)C2)cc1C | -8% | -8%
CCc1cc2c(=O)c(-c3nc4ccccc4n3C)c(COCC(=O)O)oc2cc1O | i | 4%
COc1ccc(-c2nc(CN3CCN(Cc4cccc(F)c4)CC3)c(C)o2)cc1 | -28% | 1%
CC(C)[C@H](NC(=O)Cc1ccccc1)C(=O)OCc1cc(=O)n2c(n1)sc1ccccc12 | -13% | -12%
Cc1cc(NC(=O)CSc2nnnn2-c2ccccc2F)no1 | 11% | 2%
CCN1CCCc2cc(CN(CCN3CCOCC3)C(=S)Nc3ccccc3C)ccc21 | i | -23%
CC(Sc1ccc(Cl)cc1)C(=O)NCC1CCCO1 (stereo not drawn) | / | 10%
NC(N)=N/N=C/c1ccc(Cl)c(Cl)c1 | -23% | -25%
CCOC(=O)C1=C(CC)Nc2ccccc2N=C1NC(=O)c1cc(S(=O)(=O)N(C)C)ccc1Cl | -5%[1.46 µM] | -5%
CCN1CCN(c2cc(C)c3cc(NC(=O)/C=C/c4ccc(OCCC(C)C)cc4)ccc3n2)CC1 | 0%[7.34 µM] | -5%[7.34 µM]
CCC(c1nnnn1Cc1ccccc1)N1CCC(n2c(=O)[nH]c3ccccc32)CC1 (stereo not drawn) | -5% | -19%
CC(C)(C)NC(=O)c1ccc(Sc2ccccc2)c([N+](=O)[O-])c1 | / | -5%
COc1ccc(C(=O)Nc2ccccc2C(=O)NCC2CCCO2)cc1 (stereo not drawn) | -14% | -9%
O=C(Nc1cccc(Cl)c1)OCC#CCN1CCCC1 | -27% | -10%
NC(=O)NC(=O)CSc1nnc(-c2ccco2)n1Cc1ccccc1 | i | -7%
C/C(=N\NC(=O)CSc1nc2nc(C)cc(C)n2n1)c1ccccc1 | -19% | -14%
Cc1cccc(OCCCC(=O)Nc2ccc(N3CCOCC3)cc2)c1 | -17% | -5%
CCc1nc2ccccc2c(C(=O)OCC(=O)NC2CCCC2)c1C | -1% | 7%
CN(CC(=O)Nc1ccc(S(=O)(=O)N2CCCC2)cc1)Cc1ccc(Cl)c(Cl)c1 | ? | -20%
CC(=NNC(=O)CSCC(=O)NN=C(C)c1ccccc1)c1ccccc1 | -15% | -16%
Cc1cc(NC(=O)COC(=O)c2ccc(F)c(S(=O)(=O)N3CCOCC3)c2)no1 | / | ?
Cc1cc(C(=O)NC2CCCc3ccccc32)c(C)o1 (stereo not drawn) | -13% | -1%
OC(COc1ccccc1)CN1C2=NCCCN2c2ccccc21 (stereo not drawn) | / | -15%
CN(C(=O)c1ccc(NC(=O)Cc2ccc(NC(=O)C3CCCN(C(=O)CCc4ccccc4)C3)cc2)cc1)C1CC1 (stereo not drawn) | ? | ?
CC(C)Cn1c(N)c(C(=O)COC(=O)c2cccc(F)c2)c(=O)n(C)c1=O | -17% | -25%
CCOC(=O)CN(C)C(=O)CCc1nnc(-c2ccsc2)o1 | i | -16%
CCOc1ccc(CCNC(c2nnc(-c3ccccc3)o2)c2ccccc2Cl)cc1OCC (stereo not drawn) | -26% | -23%
O=C(Nc1ccccc1F)c1oc2ccccc2c1NC(=O)c1c(F)cccc1F | -22% | -23%
O=C(Nc1nnc(S(=O)(=O)N2CCOCC2)s1)c1ccccc1 | -12% | -3%
Cc1c(C(=O)N/N=C/c2cccnc2)sc(N)c1C#N | -25% | ?
CC(C)(C)c1ccc(S(=O)(=O)Nc2ccc(Cc3ccncc3)cc2)cc1 | -28% | -28%
CCc1ccc(CN(C)C(=O)C2CCC(=O)N(CC3CCCCC3)C2)cc1 (stereo not drawn) | -36% | ?
O=C(Cc1cccs1)NC1CC(=O)N(c2ccc(F)cc2)C1 (stereo not drawn) | -8% | -9%
Nc1ccc(OC(=O)Nc2ccc(O)cc2)cc1 | -21% | -9%
CCOC(=O)C1CCN(CCC(=O)Nc2ccccc2Cl)CC1 | -8% | -7%

Later entries:
SMILES | VACV mCherry inh | Vaccinia Venus
COCCCNC(=S)Nc1ccc(CC(=O)O)cc1 | i | -4%
COc1ccc(C(=O)OCCCOC(=O)c2ccc(OC)cc2OC)c(OC)c1 | -19% | -15%
NC(=O)c1cc2ccccc2o/c1=N/NC(=O)c1cccc(F)c1 | -4% | -14%
CSc1nc(N)nc2c1ncn2CC(=O)NCc1ccc2[nH]ccc2c1 | -11% | -5%
COc1cccc(NC(=O)N(C)C[C@@H]2Oc3ncc(Br)cc3C(=O)N([C@@H](C)CO)C[C@H]2C)c1 | i | -4%
Cc1c(Nc2nc(-c3ccccc3)cs2)c(=O)n(-c2ccccc2)n1C | -20% | -6%
O=C(NCc1cccs1)C(=O)NCC(c1ccco1)N1CCN(c2ccc(F)cc2)CC1 (stereo not drawn) | ? | -11%
COc1cc(OC)c(S(=O)(=O)Nc2ccc(C(=O)N3CCCC3)cc2)cc1NC(C)=O | -13% | -9%
CC(=O)Nc1cc(C(=O)OCC(=O)c2ccccc2)ccc1C | -7% | -12%
Cc1cccc(NC(=O)C2CCN(C(=O)c3ccco3)CC2)c1C | -18% | -4%
COc1ccc(S(=O)(=O)N2CCC[C@H]2C(=O)N2CCC[C@H]2C(=O)N[C@H](C)c2ccccc2)cc1C | i | 5%
COc1ccccc1-c1c(-c2ccc(OCC(=O)NN)cc2O)n[nH]c1C(F)(F)F | -28% | -14%
COc1cccc(C(=O)NCC(c2ccc3c(c2)OCO3)N2CCN(C)CC2)c1 (stereo not drawn) | -7% | 3%
O=C(NN1CCN(Cc2ccccc2)CC1)c1ccc(N2CCOCC2)c([N+](=O)[O-])c1 | -13% | -8%
NC(=O)c1ccsc1NC(=O)COC(=O)c1cccnc1Cl | i | -14%

Compound profiles, from the list above. Values in the order: VACV mCherry inh	Vaccinia Venus
Listed for `Cc1cccc(NC(=O)C2CCN(C(=O)c3ccco3)CC2)c1C` = -18%	-4%
Listed for `CC(=O)Nc1cc(C(=O)OCC(=O)c2ccccc2)ccc1C` = -7%	-12%

(list continues)
SMILES | VACV mCherry inh | Vaccinia Venus
COCCCNC(=O)Cc1c(C)c2c(cc(C)c3c(C)c(C)oc32)oc1=O | -1% | -14%
Cc1ccc(C(=O)N2CC=C(c3ccccc3)CC2)s1 | -7% | -10%
Cc1ccc(C(=O)CC(=O)c2ccccc2C)c(O)c1 | i | -9%
N#Cc1ccc(C(=O)OCCc2cc3ccccc3c(=O)o2)cc1 | -8% | -6%
O=C(NCc1ccccc1)c1cccc(Br)n1 | -25% | -1%
CCOC(=O)c1[nH]c2ccccc2c1NC(=O)c1ccc(S(=O)(=O)N2CCOCC2)cc1 | -3% | -7%
CCO[C@@H]1OC(C(=O)NCc2ccccc2)=C[C@H](c2coc3ccccc3c2=O)[C@H]1CCCO | i | -17%
Cc1ccc(S(=O)(=O)Cc2ccccc2Cl)cc1 | ? | -22%
COc1ccc(CC(=O)Nc2ccc(-c3nc4ccccc4s3)c(C)c2)cc1OC | -21% | -16%
CC1(C)CC2/C(CO)=C/C=C/[C@](C)(O)CC[C@]21O (stereo partly drawn) | -7% | 7%
CCN(C(=O)CSc1nnc(-c2cc(OC)c(OC)c(OC)c2)o1)c1ccccc1 | -10% | -7%
Cc1ccc2c(O)c(C)c(=O)[nH]c2n1 | 2% | -8%
Cc1cccc(-n2c(CNC(=O)c3ccc(S(=O)(=O)N4CCCCC4)cc3)n[nH]c2=S)c1 | -7% | -6%
CC(=O)N1CCc2cc(CNS(=O)(=O)c3cccs3)ccc21 | -13% | -11%
O=C1CC(Cc2ccc(Cl)cc2)C(=O)N1c1cc(Cl)ccn1 (stereo not drawn) | -10% | -13%
CC(=O)Nc1ccc(C(=O)OCc2ccccc2Br)cc1 | i | 3%
CC(C)c1ccc(N(CC(=O)O)S(=O)(=O)c2cccnc2)cc1 | -8% | -10%
O=C1CCC(=O)N1CCc1c[nH]c2ccccc12 | / | -14%
CN1C(=O)c2ccccc2Sc2ccc(NC(=O)Cc3ccc(Cl)cc3)cc21 | ? | ?
O=C(/C=C/c1ccc(Cl)cc1Cl)c1nc2ccccc2[nH]1 | -9% | -10%
CC(C)c1ccc(/C=C/C(=O)NCCCc2ccccc2)cc1 | -15% | -7%
CCOc1ccc(N(CC(=O)NC2CC2)S(=O)(=O)c2ccc(C)cc2)cc1 | -15% | 11%
Cc1ccc(S(=O)(=O)N2CCCOC2CNC(=O)C(=O)NCCc2c[nH]c3ccccc23)cc1 (stereo not drawn) | ? | ?
CCOC(=O)c1cccc(NC(=O)C2CCCN(c3nnc(C)c4c(C)n(-c5ccccc5)nc34)C2)c1 (stereo not drawn) | -10% | -12%
Fc1ccc(-c2nc3c(-c4ccc(Cl)cc4)cnn3cc2CCN2CCOCC2)cc1 | -19% | 9%
CCCCN1CC(C)(C)[C@H](CC(=O)Nc2ccccc2)C1=O | -17% | -9%
COc1ccc(CCNC(=O)CSc2nnc3ccc(-c4ccccn4)nn23)cc1OC | i | -6%
N#CC1(NC(=O)COC(=O)C23CC4CC(CC(O)(C4)C2)C3)CCCCC1 | -12% | -4%
Cc1ccc(-n2nnc3ccccc3c2=O)cc1C | / | -13%
COC(=O)c1ccc(NC(=O)CN(c2ccc(C)cc2)S(=O)(=O)c2c(C)nn(C)c2C)cc1 | -3% | -20%

By substructure, the entries above with fluorine (twelve)
SMILES | VACV mCherry inh | Vaccinia Venus
O=C(Nc1ccc(C(F)(F)F)cc1)c1ccccc1 | 9% | -16%
COc1ccc(C2=NS(=O)(=O)N(C)C(C(=O)NCc3ccc(F)cc3)=C2)cc1OC | -19% | ?
COc1ccc(-c2nc(CN3CCN(Cc4cccc(F)c4)CC3)c(C)o2)cc1 | -28% | 1%
Cc1cc(NC(=O)CSc2nnnn2-c2ccccc2F)no1 | 11% | 2%
Cc1cc(NC(=O)COC(=O)c2ccc(F)c(S(=O)(=O)N3CCOCC3)c2)no1 | / | ?
CC(C)Cn1c(N)c(C(=O)COC(=O)c2cccc(F)c2)c(=O)n(C)c1=O | -17% | -25%
O=C(Nc1ccccc1F)c1oc2ccccc2c1NC(=O)c1c(F)cccc1F | -22% | -23%
O=C(Cc1cccs1)NC1CC(=O)N(c2ccc(F)cc2)C1 (stereo not drawn) | -8% | -9%
NC(=O)c1cc2ccccc2o/c1=N/NC(=O)c1cccc(F)c1 | -4% | -14%
O=C(NCc1cccs1)C(=O)NCC(c1ccco1)N1CCN(c2ccc(F)cc2)CC1 (stereo not drawn) | ? | -11%
COc1ccccc1-c1c(-c2ccc(OCC(=O)NN)cc2O)n[nH]c1C(F)(F)F | -28% | -14%
Fc1ccc(-c2nc3c(-c4ccc(Cl)cc4)cnn3cc2CCN2CCOCC2)cc1 | -19% | 9%
